2A StopGo – lowers the luciferase signal of an FMDV 2A StopGo reporter. Potency, µM (highest dose often 57.9 µM), inactives show at the top dose signal change, negative = less light. 1.2% of 410,000 active. human cells with a luciferase reporter of 2A StopGo recoding; control for the full effect not named in the record; active = well fitted falling curve with a large enough effect; inconclusive = small, poorly fitted or top-dose-only effect; inactive = no such curve, though single readings can be large or run the other way; tested in HEK293T cells; further: on the % scale 0 is the no-effect control and ±100 the full control effect; nearly all actives have a fitted effect of over 45% in size; luciferase light after 4 h
RE007 growth inh – less growth of the S. pombe RE007 Vpr strain | S. pombe RE007 Vpr strain, BacTiter-Glo ATP luminescence, 24 h; control for the full effect not named in the record | Potency, µM (titrated, usually from 92.2 µM), for inactives: top-dose activity change, negative = less growth | 0.21% of 360,000 active | AID 651644; active = well fitted falling curve with a large enough effect; inconclusive = small, poorly fitted or top-dose-only effect; inactive = no such curve, though single readings can be large or run the other way;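 further: on the % scale 0 is the no-effect control and ±100 the full control effect; nearly all actives have a fitted effect of over 50% in size; the assay follows cell death caused by Vpr and the record does not say whether a fall means rescue or toxicity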
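Fission yeast strain RE007, carrying one chromosomally integrated HIV-1 vpr copy, was seeded at OD 0.01 in PMG+AL medium with 23 nL pinned compound. After 24 h at 30 °C and 99% humidity, viability was read by BacTiter-Glo luminescence.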
SARS PLP yeast – SARS-CoV PLP inhibition in yeast. AID 485353. Potency, µM (doses to about 32.9 µM), for the others: at the top dose activity, positive = growth rescue. 0.19% of 330,000 active. S. cerevisiae expressing SARS-CoV PLpro, growth rescue; control for the full effect not named in the record; active means well fitted rising curve with a large enough effect; inconclusive means small, poorly fitted or top-dose-only effect; inactive means no such curve, though single readings can be large or run the other way; further: 0% is about no effect; nearly all actives have a fitted effect of over 55% in size; growth read by luminescence after 48 h
* marks the source's active call; other numbers are inactive results; ? = inconclusive; [ ] = remark or other dose. Potency means the concentration at half of the fitted maximal effect. Not all compounds are listed; rates above refer to the full screens.

SMILES	SARS PLP yeast	RE007 growth inh	2A StopGo
COc1cc(C(=O)NCC(=O)OCn2nnc3ccccc3c2=O)cc(OC)c1OC	-4%	6%	-12%
CN(Cc1ccccc1)C(=O)c1ccc(NC(=O)Cc2cccc(NC(=O)C3CCCN(C(=O)C4CCCCC4)C3)c2)cc1 (stereo not drawn)	-7%	2%	-25%
Cc1ccc(S(=O)(=O)N2CC(C(=O)O)=CC[C@H]2c2ccc(Cl)cc2)cc1	2%	-6%	-25%
CC(C)N(Cc1ccccc1)C(=O)CN1C(=O)NC2(CCCCCC2)C1=O	-4%	-7%	-22%
Nc1nnc(-c2ccc(Cl)c([N+](=O)[O-])c2)s1	-3%	-8%	3%
Cc1ccc(S(=O)(=O)N2CCN(Cc3cc(=O)n4ccccc4n3)CC2)c(C)c1	-2%	16%	-23%
C[C@H]1CN([C@@H](C)CO)C(=O)Cc2cc(NC(=O)CCC(F)(F)F)ccc2O[C@H]1CN(C)C(=O)Nc1ccc(F)cc1	-7%	5%	-8%
CCOC(=O)C1=CNS(=O)(=O)NC1c1ccc(OC(C)=O)cc1 (stereo not drawn)	14%	6%	-14%
COC(=O)C1=C(c2ccc(C(C)=O)cc2)C[C@@H]2CC[C@H]1N2C(=O)N1CCOCC1	0%	20%	-5%
Cc1ccc(CN2CCSc3ccc(C(=O)NCc4cccnc4)cc32)cc1	-3%	4%	21%
CCc1cc(Cn2nc(-c3ccccc3)cc2C(=O)NCC2CC2)on1	2%	-9%	9%
CSCC[C@@H](C(=O)NCCCCCCCCCCC(=O)N1CCNCC1)n1cc(CCO)nn1	1%	3%	-14%
O=C(OCC(=O)N1CCc2ccccc21)c1nc(Cl)ccc1Cl	-1%	19%	17%
Cc1ccc(NS(=O)(=O)c2ccc3c(c2)OCCCO3)cc1S(=O)(=O)N1CCOCC1	-1%	6%	60%[activator]
CCOC(=O)C1=CN(Cc2cccc(Br)c2)S(=O)(=O)N(CC)C1C (stereo not drawn)	-29%	4%	-5%
CC[C@]12c3[nH]c4ccc(Cl)cc4c3CCN1C(=O)[C@@H](CC(=O)NCCCN(C)C)C[C@@H]2C(=O)N1CCN(C(=O)c2ccco2)CC1	7%	-1%	1%
CC1CN(C(=O)Nc2cccc(Cl)c2)C2(CCCCCC2)O1 (stereo not drawn)	-1%	8%	-8%
CCC(C)c1ccccc1NC(=O)COc1ccc(-n2cnnn2)cc1 (stereo not drawn)	0%	-3%	-25%
O=C(CN1C(=O)NC2(CCCCCC2)C1=O)N1CCN(c2ccc(F)cc2)CC1	1%	-2%	-9%
O=C(COc1ccc(Cl)cc1)NCc1nnc(SCC(=O)N2CCCCCC2)o1	-2%	-4%	-17%
CC(O)c1cccc(-c2ccc(CN3C[C@]4(CO)O[C@@H](CO)C[C@@H]4S3(=O)=O)cc2)c1 (stereo partly drawn)	-9%	4%	-22%
Cc1ccc(S(=O)(=O)N2[C@@H](c3ccccc3F)C(C(=O)O)=CC[C@H]2c2ccc3c(c2)OCO3)cc1	2%	-2%	36%[activator]
O=C(NNC(=O)c1csc(N2CCOCC2)n1)c1ccc(=O)[nH]c1	-6%	3%	-12%
CC(NC(=O)CN(C)CC(=O)Nc1ccccc1Br)c1ccccc1 (stereo not drawn)	4%	17%	-10%
O=C(OCC(=O)N1CCN(c2ccccc2)CC1)c1cc(Br)ccc1Cl	1%	-24%	-18%

Individual results from the entries so far.
Under RE007 growth inh, COC(=O)C1=C(c2ccc(C(C)=O)cc2)C[C@@H]2CC[C@H]1N2C(=O)N1CCOCC1 is entered as 20%
Under SARS PLP yeast, CN(Cc1ccccc1)C(=O)c1ccc(NC(=O)Cc2cccc(NC(=O)C3CCCN(C(=O)C4CCCCC4)C3)c2)cc1 (stereo not drawn) is entered as -7%
Under SARS PLP yeast, Cc1ccc(S(=O)(=O)N2CC(C(=O)O)=CC[C@H]2c2ccc(Cl)cc2)cc1 is entered as 2%
Under RE007 growth inh, Cc1ccc(S(=O)(=O)N2CCN(Cc3cc(=O)n4ccccc4n3)CC2)c(C)c1 is entered as 16%

Exported with two lines to a compound: 2 of the compounds above
The line under a structure holds: SARS PLP yeast | RE007 growth inh | 2A StopGo
> C[C@H]1CN([C@@H](C)CO)C(=O)Cc2cc(NC(=O)CCC(F)(F)F)ccc2O[C@H]1CN(C)C(=O)Nc1ccc(F)cc1
  -7% | 5% | -8%
> CCOC(=O)C1=CNS(=O)(=O)NC1c1ccc(OC(C)=O)cc1 (stereo not drawn)
  14% | 6% | -14%

(continued)
SMILES	SARS PLP yeast	RE007 growth inh	2A StopGo
Cc1ccc(S(=O)(=O)N2[C@@H](c3ccc(Br)cc3)C(C(=O)O)=CC[C@H]2c2cccs2)cc1	-2%	-1%	-9%
Cc1ccc(S(=O)(=O)N2[C@@H](c3ccc(Cl)cc3)C(C(=O)O)=CC[C@H]2c2ccc(Cl)cc2)cc1	2%	18%	-28%
CN(C)CCCN(C(=O)COc1ccccc1)c1nc2c(Cl)cccc2s1	0%	1%	7%
O=C(O)CCNS(=O)(=O)c1cccc2nsnc12	-1%	10%	-22%
Cc1ccc(NC(=O)OC(C)CNC(=O)Oc2cccc(C)c2)cc1 (stereo not drawn)	0%	-14%	44%[activator]
O=C(CN1C(=O)C(=O)N(Cc2ccco2)C1=O)Nc1ccc(F)c(F)c1F	1%	2%	-10%
Cc1cnc(C(=O)OCc2nc3ccccc3o2)cn1	-6%	-6%	-12%
COc1cc2c(=O)n(CCCC(=O)NCC3CCCO3)c(=O)n(CC(=O)c3ccc(F)cc3)c2cc1OC (stereo not drawn)	5%	18%	19%
Cc1ccc(NC(=O)C(c2ccccc2)N2CCN(C(=O)c3ccco3)CC2)cc1Cl (stereo not drawn)	5%	5%	18%
O=C(NC1CCCCC1)c1cccc2c1C(=O)c1ccc(-c3ccc(OC(F)(F)F)cc3)cc1S2(=O)=O	-7%	14%	-17%
Cc1ccccc1-c1cc(C(=O)NCc2cccc(Br)c2)n(CC2CC(c3cccnc3)=NO2)n1 (stereo not drawn)	-6%	-20%	-3%
CCOC(=O)c1c(C)[n+]([O-])c2ccc3c(non3O)c12	3%	0%	-6%
C[C@@H]1CN([C@@H](C)CO)C(=O)c2cccc(NC(=O)Nc3ccc(F)cc3)c2O[C@@H]1CN(C)Cc1ccc(Oc2ccccc2)cc1	5%	10%	-20%
C=CC[C@H](CC(=O)NCCO)C(=O)N[C@H](COC(=O)[C@@H](CC=C)Cc1ccc(F)cc1)c1ccccc1	8%	-17%	-28%
C/C(=N\NC(=O)c1cccc(N/N=C(\C)c2ccco2)c1)c1ccco1	-3%	-1%	8%
O=C(CC1(CC(=O)N2CCOCC2)CCCC1)Nc1ccccc1	-3%	-14%	-14%
O=C(Cc1cc(=O)[nH][nH]1)N/N=C/c1cccc2ccccc12	2%	10%	7%
Cc1ccc(NC(=O)COC(=O)CN2C(=O)c3ccccc3C2=O)cc1	5%	3%	-13%
COC(=O)[C@@]1(C)[C@H]2C(=O)N(Cc3ccccc3)C(=O)[C@H]2[C@H]2CN=C(SC)N21	-7%	-10%	-5%
COc1ccccc1NC(=O)c1ccc(NC(=O)CN2CCN(C(=O)c3ccco3)CC2)cc1	3%	-4%	-28%
O=C(C[n+]1ccccc1)N/N=C/c1ccc(C(=O)O)cc1	-9%	1%	-20%
CC(C)N1CCc2c(sc(NC(=O)CCc3ccccc3)c2C(N)=O)C1	-1%	-2%	10%
CC(=O)C[C@H](O)CC(=O)[C@H]1OC(=O)CCCCCCc2ccccc21	0%	1%	-20%
O=C(CC1CCCC1)N1CCN(S(=O)(=O)c2ccccc2)CC1	0%	3%	-13%
c1ccc(C[n+]2ccccc2)cc1	2%	10%	-7%
CCOC(=O)N1CCN(C(=O)c2cn(CC)c3ccc(S(=O)(=O)N4CCCCC4)cc3c2=O)CC1	-1%	8%	-9%
Cc1ccc(S(=O)(=O)NCc2ccc(C(=O)NC3CCC(O)CC3)cc2)cc1C (stereo not drawn)	-7%	-8%	11%
CCc1noc(C)c1C(=O)OCC(=O)Nc1ccc(F)cc1Cl	7%	5%	3%
CCN(CC(=O)Nc1ccc(NC(C)=O)cc1)C(=O)c1ccc2c(c1)OCCO2	2%	-12%	0%
CCC(=O)N(Cc1ccc(S(N)(=O)=O)cc1)C1CC(=O)N(c2ccccc2)C1=O (stereo not drawn)	6%	-3%	2%
O=C(C[C@@H]1C/C=C\CC[C@H](Cc2ccc(F)cc2)C(=O)OC[C@@H](Cc2ccccc2)NC1=O)NCCO	5%	-10%	1%
O=C(C[C@@H]1C/C=C\CC[C@@H](Cc2ccc(F)cc2)C(=O)OC[C@@H](Cc2ccccc2)NC1=O)NCCO	1%	1%	-14%
CC[C@@]1(C(=O)OC)N[C@H](CN(C)S(=O)(=O)c2ccc(OC)cc2)[C@@H]2C(=O)N(C)C(=O)[C@@H]21	-2%	-1%	-23%
Cc1[nH]c(=O)nc2c1CCC2	0%	16%	5%
CC1CC(=O)Nc2ccccc2N1C(=O)CSc1nnnn1C(C)C (stereo not drawn)	-1%	-2%	-13%
CC1=C(C(=O)OCc2cc(C)on2)N2C(=O)[C@@H](NC(=O)OCc3cc(C)on3)[C@H]2SC1	-6%	-10%	0%
CCCCC(CC)C(=O)Nc1cc([N+](=O)[O-])ccc1F (stereo not drawn)	-1%	0%	-26%
CCCNC(=O)/C=C/C(=O)O	3%	8%	-3%
CCC(=O)c1ccc(OCC(=O)NCC2(N3CCCCC3)CCCCC2)cc1	-4%	-12%	0%
N#Cc1cccc(NC(=O)C2CCCN(C(=O)c3ccc(Cl)cc3)C2)c1 (stereo not drawn)	-1%	-1%	?
Cc1ccc(S(=O)(=O)N2CCN(Cc3cc(=O)n4ccccc4n3)CC2)cc1C	0%	1%	-21%
COc1ccc(SCCN2CC[C@@H](C(C)(C)C)CCC2=O)cc1	-5%	1%	9%
Cc1cc(Cl)ccc1OCCCC(=O)NNC(=O)c1ccncc1	14%	2%	-22%
O=C(CC1CCCC1)Nc1cc(S(=O)(=O)N2CCOCC2)ccc1O	-10%	-11%	8%
Cc1cc(C)cc(NC(=O)C(OC(=O)c2ccc(O)cc2)c2ccccc2)c1 (stereo not drawn)	6%	8%	-15%
CCOC(=O)N1CCC(NC(=O)c2cc3c(=O)[nH]c4ccccc4c3n2C)CC1	-2%	3%	-25%
C/C=C/C1=CC(=O)C[C@H](c2ccc(OC)c(OC)c2)C1	2%	-11%	?
NCC(=O)NCC(=O)OCc1ccccc1	1%	6%	-12%
COC(=O)c1sc(S(=O)(=O)NC(Cc2ccccc2)C(=O)O)c(C(=O)OC)c1C (stereo not drawn)	-2%	-2%	-8%
C[C@H]1O[C@@H](O[C@H]2CC[C@@]3(C)C(CC[C@]4(C)C3C=CC3=C5CC(C)(C)CC[C@]5(CO)[C@H](O)C[C@]34C)[C@]2(C)CO)[C@H](O)[C@@H](O[C@@H]2O[C@H](CO)[C@@H](O)[C@H](O)[C@H]2O)[C@H]1O (stereo partly drawn)	11%	25%	-15%

The list goes on.
SMILES	SARS PLP yeast	RE007 growth inh	2A StopGo
CCCCOc1ccc(/C=C(\C(=O)O)c2ccc(S(=O)(=O)N3CCCC3)s2)cc1	-2%	-3%	-13%
CC(C)CCOC(=O)C[N+](C)(C)CCOC1CC2CCC1(C)C2(C)C (stereo not drawn)	-3%	10%	?
O=C(NCC(c1ccco1)N1CCOCC1)c1ccc([N+](=O)[O-])cc1 (stereo not drawn)	-2%	3%	-8%
C#CCOCCOCCOCCNc1nc(N2CCN(C(=O)[C@H](CCCCN)n3cc(CN)nn3)CC2)nc(N2CCN(C(=O)[C@H](CCC(=O)O)n3cc([C@@H](N)CCCCN)nn3)CC2)n1	3%	10%	-25%
Cc1cc(SCC(=O)N(C)C2CCCCC2)nc2ccccc12	-11%	2%	-20%
Cc1ccc2ccc[n+](Cc3ccccc3)c2c1	5%	24%	-10%
CCOc1ccc(S(=O)(=O)N2CCN(C(=O)c3ccccc3Cc3ccccc3)CC2)cc1	2%	0%	-16%
CC[C@@H](C)[C@@H]1CN([C@@H](C)CN2CCC[C@H]2CN2C(N)=NC[C@@H]2Cc2ccccc2)C(=N)N1CCc1ccc(Cl)c(Cl)c1	8%	31%	-8%
O=C(N/N=C/c1ccc(Cl)cc1Cl)c1ccc(-n2cnnn2)cc1	3%	2%	-4%
Cn1ncc([N+](=O)[O-])c1C(=O)n1nnc2ccccc21	0%	6%	-6%
O=C(NCCCN1CCOCC1)c1cccc(S(=O)(=O)Nc2ccc(F)cc2)c1	-3%	3%	-4%
CC1CC(C)CN(C(=O)c2cccc(S(=O)(=O)NCc3ccccc3)c2)C1 (stereo not drawn)	0%	7%	0%
O=C(NC1CCCCC1)c1cc(C2CC2)nn1-c1ccccc1	-11%	3%	-1%
COc1cccc(CNC(=O)c2ccc(NS(=O)(=O)c3ccc4[nH]c(=O)[nH]c4c3)cc2)c1	13%	3%	-10%
Cc1nc(-c2ccccc2)nc(-c2ccccc2)n1	0%	-2%	6%
